Source: PubChem
H5N1 CPE: MDCK cell protection from H5N1 avian flu; cytopathic effect, luminescence, 72 h; stronger effect = higher value; no value below 0 was filed and about half of the inactive calls have no number; reference of the scale not given here; inhibition, % at 50 µM; 96,000 tested, 0.07% active; in the data active = inhibition above about 25%
Starred values were filed as active, the others as inactive.

What do the screens show for `C=CCN1C(=O)C2(C(C#N)=C(N)Oc3n[nH]c(CCC)c32)c2ccccc21` (stereo unspecified)?
H5N1 CPE: inactive

Results for CCN(Cc1ccccc1)C(=O)Cn1c(=O)n(CC(=O)NCc2ccco2)c(=O)c2sccc21 ?
H5N1 CPE: inactive

How did CC(C)c1ccc(O)c(CN2CCN(c3ccccc3)CC2)c1 do in these assays?
H5N1 CPE: inactive

What do the screens show for `CCNC(=O)c1ccc2c(c1)S(=O)(=O)c1ccccc1C2=O`?
H5N1 CPE: inactive

What do the screens show for `Cc1cccc(Nc2ccccc2C(=O)OCC(=O)N(C)C2CCS(=O)(=O)C2)c1C` (stereo unspecified)?
H5N1 CPE: inactive

How did CC(C)c1ccccc1OCCNS(C)(=O)=O do in these assays?
H5N1 CPE: inactive

What do the screens show for `CCc1ccc2nc3sc(C(=O)Nc4nnc(CC)s4)c(N)c3cc2c1`?
H5N1 CPE: 0.9

How did CC(=O)Nc1ccc(Sc2ncccc2C(=O)Nc2cc(Cl)cc(Cl)c2)cn1 do in these assays?
H5N1 CPE: inactive

How did O=C(CCc1nc(-c2ccccc2)no1)NC1CCCCC1 do in these assays?
H5N1 CPE: 0.7

How did O=C(NCCc1ccccc1)C(=O)N/N=C/c1ccc2c(c1)OCO2 do in these assays?
H5N1 CPE: inactive

Results for N#Cc1nc(Cc2ccccc2)oc1NCc1ccccc1Cl ?
H5N1 CPE: 1.3

Results for COc1cc(C2Nc3cccc4cccc(c34)N2)ccc1OC(C)=O ?
H5N1 CPE: 0.3

How did CC/C(=N\NC(=O)CSCc1ccccc1Br)c1ccc2c(c1)OCCO2 do in these assays?
H5N1 CPE: 0.1

What do the screens show for `CCOc1cc(C2C(C#N)=C(N)Oc3n[nH]c(C)c32)ccc1OCCN1CCOCC1` (stereo unspecified)?
H5N1 CPE: 1.1

Results for O=C(CN(C(=O)CSc1nnc(COc2ccccc2)o1)c1ccc(F)cc1)NC1CCCCC1 ?
H5N1 CPE: inactive

How did CCN(CC)C(=O)CN1C(=O)COCC1=O do in these assays?
H5N1 CPE: inactive

What do the screens show for `Cc1ccc(S(=O)(=O)NC(=O)c2cc(C)n(CCCn3ccnc3)c2C)cc1`?
H5N1 CPE: inactive

Results for COc1ccc(NC(=O)NCCCN2CCN(c3cc(C)ccc3C)CC2)cc1 ?
H5N1 CPE: inactive

How did C/C(=N/Oc1nc(C)cc(C)n1)c1ccc(Cl)cc1Cl do in these assays?
H5N1 CPE: inactive

Results for CCOC(=O)Nc1ccc2c(c1)N(C(=O)CCN(C)C)c1ccccc1S2 ?
H5N1 CPE: inactive

How did Cc1ccc2c(c1)CC1(CN2C)C(=O)NC(=O)N(c2cc(C)ccc2C)C1=O (stereo unspecified) do in these assays?
H5N1 CPE: 0.5

How did O=C(CCN1CCN(c2ccccn2)CC1)Nc1ccc(F)cc1 do in these assays?
H5N1 CPE: 0.2

What do the screens show for `Cc1ccc(OCc2ccc(C(=O)Nc3c(C)nn(Cc4c(F)c(F)c(F)c(F)c4F)c3C)o2)c([N+](=O)[O-])c1`?
H5N1 CPE: inactive

How did Cc1ccc(-c2nnc(-c3ccc(NC(=O)Cc4cccs4)cc3)o2)cc1 do in these assays?
H5N1 CPE: inactive

How did O=C(NCc1ccc(Cl)cc1)C1C2C=CC3(CN(Cc4cccnc4)C(=O)C13)O2 (stereo unspecified) do in these assays?
H5N1 CPE: 0.0

How did Cc1nn(-c2cc(C)c3ccccc3n2)c2c1CCC2 do in these assays?
H5N1 CPE: 2.0

What do the screens show for `CC1CCN(c2cc(C#N)c(C#N)cc2[N+](=O)[O-])CC1`?
H5N1 CPE: 2.1

How did O=P(O)(CCc1ccccn1)CN1CCCCC1 do in these assays?
H5N1 CPE: inactive

Results for Clc1ccc(SCCn2ccnc2)cc1 ?
H5N1 CPE: inactive

Results for O=C(CN1C(=O)COc2ccc(Cl)cc21)N1CCc2ccccc21 ?
H5N1 CPE: 1.7

How did CN(C)c1cccc(C(=O)OCc2cc(=O)oc3cc(O)ccc23)c1 do in these assays?
H5N1 CPE: inactive

How did CCN(C(=O)C1CCN(S(=O)(=O)c2ccc3c(c2)oc(=O)n3C)CC1)c1cccc(C)c1 do in these assays?
H5N1 CPE: 1.6

Results for CN(CC(=O)Nc1cccc2c1CCCC2)S(=O)(=O)c1ccc(Cl)cc1 ?
H5N1 CPE: 0.1

What do the screens show for `Cc1cc(C)c(C#N)c(SCc2ccccc2C(=O)O)n1`?
H5N1 CPE: inactive

What do the screens show for `Cc1ccc(C(=O)OCCN2CCN(c3ncc(C(F)(F)F)cc3Cl)CC2)cc1`?
H5N1 CPE: inactive

How did CCOC(=O)c1[nH]c(C)c(C(=O)N2CCN(c3ccccc3)CC2)c1C do in these assays?
H5N1 CPE: inactive

What do the screens show for `CCOC(=O)C(CC)Sc1nc2c(c(=O)[nH]c(=O)n2C)n1C/C=C(/C)Cl` (stereo unspecified)?
H5N1 CPE: 2.1

How did Cc1c(-c2ccccc2)nc2ccccc2c1C(=O)O do in these assays?
H5N1 CPE: 0.5

What do the screens show for `CCn1c(=O)c2ccccc2n2c(SCC(=O)N3CCCc4ccccc43)nnc12`?
H5N1 CPE: 0.9

How did Cc1cc(S(=O)(=O)NCCc2ccccc2)c(C)s1 do in these assays?
H5N1 CPE: inactive

For reference, some entries already given.
What do the screens show for `C=CCN1C(=O)C2(C(C#N)=C(N)Oc3n[nH]c(CCC)c32)c2ccccc21` (stereo unspecified)?
H5N1 CPE: inactive

Results for CCN(Cc1ccccc1)C(=O)Cn1c(=O)n(CC(=O)NCc2ccco2)c(=O)c2sccc21 ?
H5N1 CPE: inactive

How did CC(C)c1ccc(O)c(CN2CCN(c3ccccc3)CC2)c1 do in these assays?
H5N1 CPE: inactive

What do the screens show for `CCNC(=O)c1ccc2c(c1)S(=O)(=O)c1ccccc1C2=O`?
H5N1 CPE: inactive

What do the screens show for `Cc1cccc(Nc2ccccc2C(=O)OCC(=O)N(C)C2CCS(=O)(=O)C2)c1C` (stereo unspecified)?
H5N1 CPE: inactive

How did CC(C)c1ccccc1OCCNS(C)(=O)=O do in these assays?
H5N1 CPE: inactive

What do the screens show for `CCc1ccc2nc3sc(C(=O)Nc4nnc(CC)s4)c(N)c3cc2c1`?
H5N1 CPE: 0.9

How did CC(=O)Nc1ccc(Sc2ncccc2C(=O)Nc2cc(Cl)cc(Cl)c2)cn1 do in these assays?
H5N1 CPE: inactive

How did O=C(CCc1nc(-c2ccccc2)no1)NC1CCCCC1 do in these assays?
H5N1 CPE: 0.7

How did O=C(NCCc1ccccc1)C(=O)N/N=C/c1ccc2c(c1)OCO2 do in these assays?
H5N1 CPE: inactive

Results for N#Cc1nc(Cc2ccccc2)oc1NCc1ccccc1Cl ?
H5N1 CPE: 1.3

Results for COc1cc(C2Nc3cccc4cccc(c34)N2)ccc1OC(C)=O ?
H5N1 CPE: 0.3

How did CC/C(=N\NC(=O)CSCc1ccccc1Br)c1ccc2c(c1)OCCO2 do in these assays?
H5N1 CPE: 0.1

What do the screens show for `CCOc1cc(C2C(C#N)=C(N)Oc3n[nH]c(C)c32)ccc1OCCN1CCOCC1` (stereo unspecified)?
H5N1 CPE: 1.1

More entries follow.
How did Cc1cc(=O)oc2c(CN(CC(C)C)CC(C)C)c(O)ccc12 do in these assays?
H5N1 CPE: 1.2

Results for Cc1c(C(=O)Nc2ccc(Cl)cc2)c2ccccn2c1C(=O)c1ccccc1 ?
H5N1 CPE: inactive

How did O=C(NCc1ccccc1Cl)c1csc2c1CCCCC2 do in these assays?
H5N1 CPE: inactive

How did O=C1CCc2cc(S(=O)(=O)N3CCC(C(=O)NCc4ccccn4)CC3)ccc2N1 do in these assays?
H5N1 CPE: 1.1

How did Cn1c(SCC(=O)NCc2ccc3c(c2)OCO3)nnc1-c1c[nH]c2ccccc12 do in these assays?
H5N1 CPE: inactive

What do the screens show for `O=C(NCc1cccnc1)c1cn(CCc2ccccc2)nn1`?
H5N1 CPE: inactive

Results for CC(=O)c1cccc(NS(=O)(=O)N(C)C)c1 ?
H5N1 CPE: 0.2

What do the screens show for `Cc1nnc(SCC(=O)N2c3ccccc3Sc3ccccc32)n1N`?
H5N1 CPE: 0.9

Results for O=C(NC1CCCCC1)Sc1ccc(Cl)cc1 ?
H5N1 CPE: inactive

Results for N#CC(c1ccc(O)cc1)N1CCCCC1 (stereo unspecified) ?
H5N1 CPE: 0.5

What do the screens show for `COc1cc(OC)c(C(=O)Nc2cccc(C(C)=O)c2)cc1OC`?
H5N1 CPE: inactive

How did Cc1ccc(C2C=C(c3ccccc3OC(F)F)Nc3ncnn32)cc1 (stereo unspecified) do in these assays?
H5N1 CPE: inactive

How did Cc1cc(Nc2ccccc2)n(CCC#N)n1 do in these assays?
H5N1 CPE: 1.0

Results for COc1cc(C(=O)N(Cc2cccnc2)Cc2cc3cc4c(cc3[nH]c2=O)OCCO4)cc(OC)c1OC ?
H5N1 CPE: 0.2

Results for CN(C)c1ccc(NC(=O)CN2CCN(S(=O)(=O)c3cc(Cl)ccc3Cl)CC2)cc1 ?
H5N1 CPE: 2.1

How did O=C(CCn1nc(-c2ccc(Cl)cc2)ccc1=O)NCc1ccccn1 do in these assays?
H5N1 CPE: 0.6

Results for Cc1c(C(=O)NN2CCN(C)CC2)cccc1[N+](=O)[O-] ?
H5N1 CPE: 0.2

Results for CCOC(=O)c1[nH]c(C)c(C(=O)N2CCN(c3ccc(F)cc3)CC2)c1C ?
H5N1 CPE: inactive

What do the screens show for `O=C(COc1ccccc1)N1CCN(c2ccc([N+](=O)[O-])c(N3CCCCC3)c2)CC1`?
H5N1 CPE: 1.3

How did O=S(=O)(c1ccccc1)c1nc(-c2cccs2)oc1NCC1CCCO1 (stereo unspecified) do in these assays?
H5N1 CPE: 5.0

How did CC(=O)c1cccc(NC(=O)c2ccc(Br)o2)c1 do in these assays?
H5N1 CPE: inactive

Results for CC(Sc1nnc2ccccn12)C(=O)Nc1ncc(Cl)cc1Cl (stereo unspecified) ?
H5N1 CPE: inactive

What do the screens show for `CCc1nc(C)cn1S(=O)(=O)c1cc(OC)c(C)cc1C`?
H5N1 CPE: inactive

Results for CCCc1cc(C(=O)Nc2cccnc2Cl)no1 ?
H5N1 CPE: inactive

Results for CCCNC(=O)NC(=O)COC(=O)c1ccc(OC)c(S(=O)(=O)N2CCCc3ccccc32)c1 ?
H5N1 CPE: 0.5

Results for COc1ccccc1CNS(=O)(=O)c1ccc2c(c1)oc(=O)n2C ?
H5N1 CPE: 2.3

What do the screens show for `COCCOC(=O)C1=C(N)Oc2c(c(=O)oc3ccccc23)C1c1ccncc1` (stereo unspecified)?
H5N1 CPE: inactive

How did COc1cccc(NC(=O)CN2CCN(S(=O)(=O)c3ccc(F)cc3)CC2)c1 do in these assays?
H5N1 CPE: 1.3

How did Oc1ccc(Br)cc1-c1cc(-c2ccccc2F)[nH]n1 do in these assays?
H5N1 CPE: 2.0

Results for S=C(NCc1cccnc1)Nc1ccc(Cl)c(Cl)c1 ?
H5N1 CPE: inactive

Results for CCOC(=O)c1ccc(NC(=O)C2CCCN(S(=O)(=O)c3ccc(F)cc3)C2)cc1 (stereo unspecified) ?
H5N1 CPE: inactive

What do the screens show for `CCC(C)(C)NC(=O)C(c1ccc(C)o1)N(Cc1cccs1)C(=O)Cn1nnc2ccccc21` (stereo unspecified)?
H5N1 CPE: inactive

How did C=CCNc1nc(N)c(C(=O)c2ccc3c(c2)OCO3)s1 do in these assays?
H5N1 CPE: 9.5

Results for CCn1c(NCc2cccc(OC)c2OC)nc2ccccc21 ?
H5N1 CPE: inactive

How did O=C(CCc1nc2ccccc2[nH]c1=O)OCc1ccc(S(=O)(=O)N2CCOCC2)cc1 do in these assays?
H5N1 CPE: 0.2

What do the screens show for `CCOc1c2ccc(C(=O)NCc3cc(C(F)(F)F)cc(C(F)(F)F)c3)cc2nn1CCOC`?
H5N1 CPE: 1.2

Results for CC1CN(C(=O)Nc2ccc3snnc3c2)c2ccccc21 (stereo unspecified) ?
H5N1 CPE: 1.9

How did O=C(Nc1ccccc1)OC1C2CCC1C(N1CCCCC1)CC2 (stereo unspecified) do in these assays?
H5N1 CPE: inactive

How did COc1cc(C)c(Cl)cc1S(=O)(=O)NCc1ccco1 do in these assays?
H5N1 CPE: inactive

What do the screens show for `CSc1nc(SCC(N)=O)c2c3c(sc2n1)CN(C)CC3`?
H5N1 CPE: 3.4

What do the screens show for `CCOC(=O)c1ccc(NC(=O)CC2OCCN(CC)C2=O)cc1` (stereo unspecified)?
H5N1 CPE: 2.5

Results for O=C1CSC(c2cccnc2)N1c1ccc(F)cc1 (stereo unspecified) ?
H5N1 CPE: 0.1

How did O=C(c1ccc(Cl)cc1)c1ccc(CN2C(=O)c3ccccc3C2=O)o1 do in these assays?
H5N1 CPE: 0.4

Results for CCn1c(-c2cccnc2)n[nH]c1=S ?
H5N1 CPE: inactive

How did CCC(=O)NCCNc1nc2cc(C)c(C)cc2cc1C#N do in these assays?
H5N1 CPE: 0.0

What do the screens show for `CCOCCCNc1ncnc2c1[nH]c1ccccc12`?
H5N1 CPE: 0.6

How did Cc1ccccc1Nc1nc(N)nc(CSc2nc3ccccc3c(=O)n2C)n1 do in these assays?
H5N1 CPE: inactive

How did COc1ccc(S(=O)(=O)O/N=C2\CCCc3ccccc32)cc1 do in these assays?
H5N1 CPE: 0.4

How did Cc1cccc2cc(C#N)c(NCCCn3ccnc3)nc12 do in these assays?
H5N1 CPE: inactive

How did O=C(CSc1ncccc1C(=O)O)c1ccc2ccccc2c1 do in these assays?
H5N1 CPE: inactive

How did CC1C/C(=N/N2C(=O)CSC2=S)CC(C)(C)C1 (stereo unspecified) do in these assays?
H5N1 CPE: inactive

What do the screens show for `COc1ccc2[nH]c(=O)c(CN(C(=O)c3cccnc3)c3ccccc3)cc2c1`?
H5N1 CPE: 1.2

How did COc1ccc(C(=O)Nc2ccc(S(=O)(=O)Nc3nccnc3OC)cc2)cc1 do in these assays?
H5N1 CPE: 0.7

How did O=C(CSc1nnc2n(C3CCCCC3)c(=O)c3ccccc3n12)OC1CCCCC1 do in these assays?
H5N1 CPE: 0.9

What do the screens show for `CC1CCN(C(=O)CNS(=O)(=O)c2ccc(Br)s2)CC1`?
H5N1 CPE: 1.4

What do the screens show for `Cc1cc(C(F)F)n2nc(C(=O)Nc3c(F)cc(F)cc3Br)nc2n1`?
H5N1 CPE: 0.2

Results for COC(=O)[C@H](CCSC)NC(=O)Nc1ccc(C(C)=O)cc1 ?
H5N1 CPE: inactive

How did CCc1nc(NC2CCCCC2)c(C#N)c2c1COC(C)(C)C2 do in these assays?
H5N1 CPE: 5.4

Only part of the results is shown; rates above refer to the full screens.
